rRNA inh HTS = inhibits bacterial ribosomal RNA function over humanized ribosomes; E. coli WT GFP vs humanized-ribosome RFP mutants, fluorescence, 24 h; hits give low values; DMSO median 0, no signal -100; GFP signal change (wild-type ribosome), % (no concentration beside the values); hit rate 1.6% among 350,000;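 active means significant combined selectivity score with lowered wild-type GFP, culture density cut under 30%, mutant RFP and density less affected; inactive means any of these conditions unmet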; further: one replicate is shown; some compounds called inactive have numbers as strong as hits
rRNA inh HTS OD600 = also measured in rRNA inh HTS; calls as there; OD600 change, %; measured here: OD600 growth;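 optical density of the mix in the first replicate; 0 = DMSO median and -100 = no signal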
rRNA inh HTS RFP = recorded beside rRNA inh HTS, whose call it bears; RFP signal change, %; measured here: RFP humanized mutant strains;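 first replicate; 0 = DMSO median and -100 = no signal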
* marks the source's active call; other numbers are inactive results; & = joins results of further samples.

structure	rRNA inh HTS RFP	rRNA inh HTS OD600	rRNA inh HTS
COc1ccc(NC(=O)Nc2ccc3c(c2)C(=O)N([C@@H](C)CO)C[C@H](C)[C@@H](CN(C)C(=O)C2CCCCC2)OCCCC[C@H](C)O3)cc1	-0.1	-8	-3
CC(=O)N1c2ccccc2N=C(c2ccc(C(F)(F)F)cc2)C1C(=O)NC1CCCC1 (stereo unspecified)	2.7	14	2
CN1C(=O)c2cc(NC(=O)C3CCC3)ccc2OC[C@H]2O[C@@H](CC(=O)NCC3CCCCC3)CC[C@@H]21	0.0	-7	-2
C[C@H](CO)N1C[C@H](C)[C@H](CN(C)C)Oc2ncc(C#CC3(O)CCCC3)cc2C1=O	-1.5	3	1
CCC(=O)N1CC2(CCN(Cc3ccncc3)CC2)c2c(n(C)c3cc(OC)ccc23)[C@@H]1CO	0.2	-3	-3
CCC(=O)N1CCCC(C(=O)Nc2nc3ccccc3[nH]2)CC1 (stereo unspecified)	0.9	9	5
Cc1ccc(-c2ccc3c(c2)O[C@H](CN(C)C(=O)C2CC2)[C@H](C)CN([C@H](C)CO)S3(=O)=O)cc1	18	-23	-4
C[C@@H]1CN([C@@H](C)CO)S(=O)(=O)c2ccc(Br)cc2O[C@@H]1CN(C)S(=O)(=O)c1cn(C)cn1	0.6&-1.3	9&5	14&-2
Cc1ccc(S(=O)(=O)N(C)C[C@H]2Oc3ccc(NC(=O)Nc4c(C)noc4C)cc3C(=O)N([C@H](C)CO)C[C@H]2C)cc1	-1.5	1	2
COCCNC(=O)C[C@@H]1CC[C@H]2[C@@H](COc3ccc(NC(=O)Cc4ccccc4)cc3C(=O)N2C)O1	-1.8	-5	-1
O=C(C[C@@H]1CC[C@@H]2[C@H](COC[C@@H](O)CN2C(=O)Nc2cccc(F)c2)O1)NCCCN1CCOCC1	-4.1	-15	-12
COc1ccc(C#Cc2ccc(C3=CC(=O)CC(C)(C)C3=O)cc2)cc1	-1.9	-2	0
CCC(=O)N1[C@H](CN(CC)C(C)=O)[C@@H](c2ccc(-c3cccnc3)cc2)[C@@H]1CO	0.0	5	0
Clc1cccc(Cc2c(-c3cccc(Br)c3)nc3c4ccccc4ccn23)c1	36	14	24
CC(C)NC(=O)Nc1ccc2c(c1)CC(=O)N([C@@H](C)CO)C[C@@H](C)[C@H](CN(C)C(=O)NC(C)C)O2	-0.6	20	5
COCC(=O)N1[C@@H]2c3ccc(-c4ccccc4)c(=O)n3C[C@H]1[C@H](CO)[C@H]2C(=O)NCc1ccccn1	-2.7	5	2
COc1cccc(S(=O)(=O)N[C@H]2C=C[C@H](CC(=O)NCc3ccncc3)O[C@H]2CO)c1	-1.7	3	1
C[C@@H]1CCCCO[C@H](CN(C)C(=O)c2ccccc2)[C@@H](C)CN([C@@H](C)CO)C(=O)c2cc(NC(=O)CCC(F)(F)F)ccc2O1	-3.3	-3	-1
O=C(C[C@@H]1C[C@H]2c3cc(NS(=O)(=O)c4ccc(F)cc4)ccc3O[C@H]2[C@H](CO)O1)NCc1ccccc1F	3.8	-20	-4
COc1cc2c(cc1OC)C(c1ccccc1[N+](=O)[O-])=NCC2	1.1	9	8
O[C@@H]1CN(Cc2cccs2)[C@@H](c2ccc(Cl)cc2)C[C@H]1n1cc(-c2ccc(F)cc2)nn1	4.3	11	2
O=C(C[C@@H]1C=C[C@@H](NC(=O)Nc2ccc3c(c2)OCO3)[C@@H](CO)O1)NCc1ccccc1	-0.7	7	4
C[C@H](CO)N1C[C@H](C)[C@H](CN(C)S(=O)(=O)c2cccc(F)c2)OCc2cnnn2CCCC1=O	0.6	-4	-2
COc1ccc(S(=O)(=O)N(C)C[C@@H]2Oc3ccc(NC(=O)Nc4ccc5c(c4)OCO5)cc3C(=O)N([C@@H](C)CO)C[C@H]2C)cc1	-2.0	-9	-7
COc1ccc(NC(=O)C2Cc3c(-c4cccc(C(N)=O)c4)ccnc3O2)cc1OC (stereo unspecified)	0.5	20	11
CN1[C@@H]2Cn3c(ccc(-c4cccnc4)c3=O)[C@H]1[C@@H](C(=O)NCCc1ccccc1)[C@@H]2CO	-3.8	4	2
COc1ccccc1NC(=O)CCNC(=O)C1CCN(S(=O)(=O)c2ccccc2)CC1	1.7	-2	-5
O=c1cc(-c2ccccc2)oc2ccc3ccccc3c12	5.8	21	10
C[C@@H]1CN([C@@H](C)CO)C(=O)c2cc(NC(=O)NC3CCCCC3)ccc2O[C@@H]1CN(C)S(C)(=O)=O	1.7	5	6
C[C@@H]1CN([C@H](C)CO)C(=O)c2cc(NC(=O)CCCN(C)C)ccc2O[C@H]1CN(C)S(=O)(=O)c1cn(C)cn1	-2.0	8	6

Fetched by structure from the list above, 6 records:
structure	rRNA inh HTS RFP	rRNA inh HTS OD600	rRNA inh HTS
COc1ccc(S(=O)(=O)N(C)C[C@@H]2Oc3ccc(NC(=O)Nc4ccc5c(c4)OCO5)cc3C(=O)N([C@@H](C)CO)C[C@H]2C)cc1	-2.0	-9	-7
CCC(=O)N1CCCC(C(=O)Nc2nc3ccccc3[nH]2)CC1 (stereo unspecified)	0.9	9	5
O=C(C[C@@H]1CC[C@@H]2[C@H](COC[C@@H](O)CN2C(=O)Nc2cccc(F)c2)O1)NCCCN1CCOCC1	-4.1	-15	-12
C[C@@H]1CN([C@H](C)CO)C(=O)c2cc(NC(=O)CCCN(C)C)ccc2O[C@H]1CN(C)S(=O)(=O)c1cn(C)cn1	-2.0	8	6
CN1[C@@H]2Cn3c(ccc(-c4cccnc4)c3=O)[C@H]1[C@@H](C(=O)NCCc1ccccc1)[C@@H]2CO	-3.8	4	2
COc1ccc(NC(=O)C2Cc3c(-c4cccc(C(N)=O)c4)ccnc3O2)cc1OC (stereo unspecified)	0.5	20	11

Next section:
structure	rRNA inh HTS RFP	rRNA inh HTS OD600	rRNA inh HTS
O=C(C[C@@H]1C=C[C@H](NS(=O)(=O)c2ccc(F)cc2)[C@H](CO)O1)NC1CCCCC1	-1.8	2	2
O=S(=O)(NC1CCN(Cc2ccccc2)CC1)c1ccc(F)c(F)c1	-1.0	16	6
OC(c1ccccc1)(c1nc(-c2cc(F)cc(F)c2)cs1)C(F)(F)F (stereo unspecified)	-20	-81	-59
COc1ccc(CN(C)C[C@@H]2OCCCC[C@@H](C)Oc3ccc(NS(=O)(=O)c4ccccc4)cc3C(=O)N([C@H](C)CO)C[C@@H]2C)cc1	-0.5	-2	-1
C[C@@H]1CN([C@@H](C)CO)C(=O)c2cccc(NC(=O)c3nc4ccccc4s3)c2O[C@H]1CN(C)S(C)(=O)=O	-0.2	-14	-5
COc1ccc(CNC(=O)c2cn(Cc3ccc(S(=O)(=O)N(C)C)cc3)c(=O)s2)cc1	-5.4	5	8
N#Cc1ccc(-c2ccc3c(c2)[C@@H]2[C@@H](CCN2C(=O)C2CCCCC2)[C@@H](CO)N3)cc1	10	-63	-35
COc1cc(CN2CC3(CN(C)C3)c3c([nH]c4cc(OC)ccc34)[C@H]2CO)cc(OC)c1	1.2	-3	4
Cc1cccc(S(=O)(=O)N[C@H]2CC[C@@H](CCNC(=O)CCN3CCCCC3)O[C@H]2CO)c1	-3.5	-1	-2
Cc1cc(N=O)no1	-1.5	14	15
Cc1ccc(S(=O)(=O)Nc2cccc3c2O[C@@H](CN(C)S(=O)(=O)c2cccs2)[C@H](C)CN([C@H](C)CO)C3=O)cc1	3.1	-4	-1
C[C@H](CO)N1C[C@H](C)[C@H](CN(C)Cc2ccccc2)OCCCC[C@H](C)Oc2ccc(NS(=O)(=O)c3cn(C)cn3)cc2C1=O	0.6	3	2
CCN(CC)C(=O)c1cccc(-c2csc(C(O)c3ccc(F)c(OC)c3)n2)c1 (stereo unspecified)	-0.3	-19	-10
CN[C@H]1C[C@H]2c3cc(-c4ccccc4)ccc3CCN2C(=O)[C@H]1[C@H](C)O	-0.3	-8	-5
C[C@@H]1CCCCO[C@@H](CN(C)C(=O)c2ccncc2)[C@@H](C)CN([C@H](C)CO)C(=O)c2cc(NC(=O)C3CCCCC3)ccc2O1	-1.0	5	3
CO[C@H]1CN(C)C(=O)c2ccc(NS(C)(=O)=O)cc2OC[C@@H](C)N(C)C[C@@H]1C	-2.2	5	1
CC(C)CC#Cc1cnc2c(c1)C(=O)N([C@H](C)CO)C[C@H](C)[C@H](CN(C)S(=O)(=O)c1ccccc1)O2	1.2	-1	-1
CCCC(=O)Nc1ccc2c(c1)C(=O)N(C)C[C@@H](OC)[C@H](C)CN(Cc1cc(F)ccc1F)[C@H](C)CO2	2.7	-9	-5
CO[C@@H]1CN(C)C(=O)c2cc(NC(=O)C3CC3)ccc2OC[C@H](C)N(Cc2cccnc2)C[C@@H]1C	-3.1	5	-3
Cc1noc(C)c1NC(=O)N(C)C[C@H]1Oc2ccc(NC(=O)Nc3ccc4c(c3)OCO4)cc2CC(=O)N([C@@H](C)CO)C[C@@H]1C	-0.5	14	1
C[C@@H]1CN([C@@H](C)CO)C(=O)Cc2cc(NC(=O)CCC(F)(F)F)ccc2O[C@H]1CN(C)C(=O)Nc1cccc2ccccc12	1.2	-3	-1
COc1ccc(C(=O)C(OP(=O)(OC)OC)c2ccccc2OC)cc1 (stereo unspecified)	3.0	11	9
C[C@H](CO)N1C[C@H](C)[C@@H](CN(C)C(=O)Nc2ccccc2)Oc2c(NC(=O)c3ccc(-c4nccs4)cc3)cccc2C1=O	-0.4	-4	-2
O=C(C[C@H]1C[C@H]2c3cc(NC(=O)C4CCOCC4)ccc3O[C@H]2[C@@H](CO)O1)NCc1ccccc1F	1.1	-12	-1
O=C(O)Cc1ccc(NS(=O)(=O)c2ccc3c(c2)OCCO3)cc1	-2.9	21	4
CN(C)C(=O)C[C@H]1CC[C@H](NC(=O)Nc2cccc(F)c2)[C@H](CO)O1	1.2	3	-3
COC(=O)[C@@]1(Cc2ccc(F)cc2)[C@H]2c3cc(C(=O)N(C)C)n(CCc4c[nH]c5ccc(O)cc45)c3C[C@H]2CN1C(=O)c1ccccc1	0.4	4	9
Cc1cccc(N(CC(=O)NCc2ccco2)S(=O)(=O)c2ccccc2)c1	0.5	12	1
COc1ccccc1CN1CC[C@H]2[C@H](CO)Nc3ccc(-c4cccc(F)c4)cc3[C@H]21	-19	-76	-55
Cc1ccc([C@@H]2CC(=O)[C@@H]3CN(S(=O)(=O)c4ccc(C)cc4)[C@H](c4cccc5ccccc45)C[C@@H]3N2S(=O)(=O)c2ccc(Cl)cc2)cc1	3.4	19	29

Single entries from above.
rRNA inh HTS OD600, COc1cc2c(cc1OC)C(c1ccccc1[N+](=O)[O-])=NCC2 → 9
rRNA inh HTS OD600, COc1ccc(S(=O)(=O)N(C)C[C@@H]2Oc3ccc(NC(=O)Nc4ccc5c(c4)OCO5)cc3C(=O)N([C@@H](C)CO)C[C@H]2C)cc1 → -9
rRNA inh HTS OD600, COCCNC(=O)C[C@@H]1CC[C@H]2[C@@H](COc3ccc(NC(=O)Cc4ccccc4)cc3C(=O)N2C)O1 → -5

(further entries)
structure	rRNA inh HTS RFP	rRNA inh HTS OD600	rRNA inh HTS
Cc1ccc(S(=O)(=O)Nc2ccc3c(c2)C(=O)N([C@@H](C)CO)C[C@H](C)[C@@H](CN(C)C(=O)Nc2c(C)noc2C)O3)cc1	1.3	8	4
C[C@@H]1CN([C@@H](C)CO)S(=O)(=O)c2ccc(C#CCN(C)C)cc2O[C@H]1CN(C)C(=O)C1CC1	-1.6	-2	1
CCCCCCn1c(=O)n2n(c1=O)C[C@]1(OC(=O)NCC3CCCCC3)CN(S(=O)(=O)c3ccc(C)cc3)C[C@]1(O)C2	2.9	4	3
CCC(c1nnnn1C1CCCC1)N1CCN(C/C=C/c2ccccc2)CC1 (stereo unspecified)	9.0	13	16
O=C(Nc1ccc(-c2ccccc2)cc1)[C@@H]1[C@@H](CO)[C@@H]2Cn3c(cccc3=O)[C@H]1N2Cc1cncnc1	-1.8	-2	0
FC(F)(F)c1ccccc1Cc1c(-c2ccco2)nc2ccc(Cl)cn12	4.2	6	4
Cc1nc(C(F)(F)F)ccc1C(=O)N1CCC(C)(C(=O)O)C1 (stereo unspecified)	1.9	11	12
COCC#Cc1cnc2c(c1)C(=O)N([C@@H](C)CO)C[C@@H](C)[C@@H](CN(C)C(=O)CCN1CCCCC1)O2	-2.6	9	3
O=C(C[C@H]1CC[C@@H]2[C@H](COC[C@@H](O)CN2Cc2ccc(Oc3ccccc3)cc2)O1)N1CCOCC1	1.5	-11	-5
O=C(N[C@H]1CC[C@@H](CCNS(=O)(=O)c2ccc(F)cc2)O[C@H]1CO)c1cnccn1	-0.4	11	1
Cc1ccccc1Cn1c(C)c(C(=O)NCc2cccc(Cl)c2)sc1=O	-5.1	-2	-11
Cc1noc(C)c1S(=O)(=O)N(C)C[C@H]1OCCCC[C@@H](C)Oc2ccc(NS(=O)(=O)c3ccccc3)cc2C(=O)N([C@H](C)CO)C[C@@H]1C	1.0	2	2
COc1ccc2c3c([nH]c2c1)[C@@H](CO)N(C)CC31CN(S(=O)(=O)c2ccc(C)cc2)C1	5.2	-51	-25
COC(=O)[C@@]1(Cc2ccc(OC)cc2)[C@H]2c3cc(C(=O)N4CCCC4)n(CCc4c[nH]c5ccccc45)c3C[C@H]2CN1C(=O)c1ccccc1	6.6	6	2
C[C@@H]1CN([C@@H](C)CO)C(=O)c2cccc(NC(=O)Nc3ccc4c(c3)OCO4)c2O[C@H]1CN(C)Cc1ccc(C(=O)Nc2ccccc2N)cc1	-2.9	-12	-6
COc1ccc(N2C(c3ccsc3)=Cc3cc4c(cc3C2c2c[nH]c3ccccc23)OCO4)cc1 (stereo unspecified)	-20	-81	-50
C[C@@H]1CCCCO[C@@H](CN(C)C(=O)c2ccccc2)[C@H](C)CN([C@H](C)CO)C(=O)c2cc(NC(=O)Cc3ccccc3)ccc2O1	2.8	-13	-17
CC(C)CC#Cc1ccc([C@@H]2[C@@H](CO)N3C(=O)CN(C(=O)NC(C)C)C[C@@H]23)cc1	0.1	0	-1

Source: PubChem (Broad Institute)

This is a subset. The share of hits here may be higher or lower than overall.
